CtBP-E1A blk: blocks the CtBP interaction with E1A; AlphaScreen GST-E1A/His-CtBP binding, 1536-well; hits give low values; control for the full effect not named in the record; activity change, % (test concentration not listed); 0.49% of 340,000 active; AID 651724; in the data active means activity change below about -65%; inconclusive means about -30% to -65%; inactive means above about -30%; also: % is scaled to controls: 0 for no effect and ±100 for the full control effect; compound concentration not given in the record
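In 5 uL wells, 23 nL compound meets equimolar GST-E1A and His-CtBP (5X stock 125 nM each) for 2 h, 37 °C. Beads (5X, 50 ug/mL) then 1 h, 37 °C, dark.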
ClpP mod: qHTS Assay for Activators of ClpP | ATP-dependent Clp protease proteolytic subunit (Bacillus subtilis (strain 168)), P80244 | purified B. subtilis ClpP, FRET peptide cleavage, 20 min | Potency, µM (highest dose often 57.5 µM), for the others: at the top dose activity change, negative = active | 1.9% of 340,000 active; active = well fitted falling curve with a large enough effect; inconclusive = small, poorly fitted or top-dose-only effect; inactive = no such curve, though single readings can be large or run the other way; also: potency is read from the fitted curve at half-maximal effect; the source files actives as falling curves though it sought activators and does not explain the sign; nearly all actives have a fitted effect of over 65% in size; many hits overshoot -100%
Target sequence (P80244 whole entry, looked up): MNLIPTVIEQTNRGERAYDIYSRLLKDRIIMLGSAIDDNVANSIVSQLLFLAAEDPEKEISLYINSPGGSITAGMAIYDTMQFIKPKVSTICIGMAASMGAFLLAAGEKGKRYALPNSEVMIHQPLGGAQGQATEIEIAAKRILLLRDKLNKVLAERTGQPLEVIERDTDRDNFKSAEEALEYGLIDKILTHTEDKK
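Purified B. subtilis ClpP, 10 microg/mL final in Tris/HCl pH8 with KCl, BSA, glycerol and Tween-20, cleaved an Abz/nitrotyrosine-quenched decapeptide. Fluorescence (ex 320, em 430) was read at 0 and 20 min at room temperature. Delta was normalized to 5.8 microM ADEP and DMSO/no-enzyme controls.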
Menin-MLL FL inh: inhibitors of human menin-MLL interaction, wild-type MLL peptide; FP activity change, % at 61.4 µM; AID 1766; 290,000 tested, under 10 active; Fluorescence polarization, fluorescein-MLL peptide displacement from menin; inconclusive = falling polarisation curve, or a change in total fluorescence; inactive = total fluorescence flat and polarisation flat or rising; no compound was filed as active; the % refers to the polarisation; negative = inhibition;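 also: % of control where 0% means no effect; inhibitors lower the polarisation; unlabelled MLL peptide was the positive control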
gsp antagonist: antagonizes gsp, the McCune-Albright syndrome mutation; gsp-mutant cells, cAMP HTRF, 30 min; control for the full effect not named in the record; Potency, µM (top dose mostly 76.9 µM), for inactives: top-dose activity change, negative = inhibition, hits mostly inhibitors; 0.4% of 340,000 active; active = falling curve of any shape with a large fitted effect; inconclusive = falling curve, mostly with a smaller effect; inactive = flat or rising curve; cell line not stated here;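 also: intracellular cAMP measured with PDE inhibitor Ro 20-1724 present during compound exposure; potency is read from the fitted curve at half-maximal effect; % is scaled to controls: 0 for no effect and ±100 for the full control effect; nearly all actives have a fitted effect of over 65% in size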
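HTRF cAMP measurement after 30 min RT detection following 30 min, 37C compound treatment alongside […] (added as 300 uM solution) in G418-selected cells seeded at 2000/well and grown 16–24 h.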
Sfp inh: inhibitors of Bacillus subtilis Sfp phosphopantetheinyl transferase; Biochemical Sfp PPTase activity, qHTS; Q9F4F7; AID 1490; 3.5% of 310,000 active; Potency, µM, for the others: max response, negative = inhibition, hits mostly inhibitors; active = well fitted inhibition curve with a large enough effect; inconclusive = small, poorly fitted or top-dose-only effect, or another doubt; inactive = no such curve, though single readings can be large or run the other way;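 also: the enzyme is Sfp with the accession as filed and its product quenches rhodamine fluorescence; potency is read from the fitted curve at half-maximal effect; 0% = enzyme reaction without inhibitor and -100% = no enzyme wells; top concentration of the series not given in the record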
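Compounds were incubated with enzyme (final 15 nM) for 15 min at room temperature before substrate addition started the reaction. Fluorescence at 525 nm excitation, 598 nm emission was recorded immediately and after 30 minutes.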
TRPV1 PAM: potentiators of human vanilloid receptor 1 (TRPV1). Q8NER1. TRPV1-expressing cells, Fluo-8 calcium influx, capsaicin EC20 potentiation; host cell line not named in the record; control for the full effect not named in the record. potentiation, % at 8.33 µM. 0.02% of 320,000 active. AID 540277; active means potentiation above 80%; inconclusive means 30% to 80%; inactive means below 30%; also: 0% is about no effect
Target sequence (Q8NER1 whole entry, looked up): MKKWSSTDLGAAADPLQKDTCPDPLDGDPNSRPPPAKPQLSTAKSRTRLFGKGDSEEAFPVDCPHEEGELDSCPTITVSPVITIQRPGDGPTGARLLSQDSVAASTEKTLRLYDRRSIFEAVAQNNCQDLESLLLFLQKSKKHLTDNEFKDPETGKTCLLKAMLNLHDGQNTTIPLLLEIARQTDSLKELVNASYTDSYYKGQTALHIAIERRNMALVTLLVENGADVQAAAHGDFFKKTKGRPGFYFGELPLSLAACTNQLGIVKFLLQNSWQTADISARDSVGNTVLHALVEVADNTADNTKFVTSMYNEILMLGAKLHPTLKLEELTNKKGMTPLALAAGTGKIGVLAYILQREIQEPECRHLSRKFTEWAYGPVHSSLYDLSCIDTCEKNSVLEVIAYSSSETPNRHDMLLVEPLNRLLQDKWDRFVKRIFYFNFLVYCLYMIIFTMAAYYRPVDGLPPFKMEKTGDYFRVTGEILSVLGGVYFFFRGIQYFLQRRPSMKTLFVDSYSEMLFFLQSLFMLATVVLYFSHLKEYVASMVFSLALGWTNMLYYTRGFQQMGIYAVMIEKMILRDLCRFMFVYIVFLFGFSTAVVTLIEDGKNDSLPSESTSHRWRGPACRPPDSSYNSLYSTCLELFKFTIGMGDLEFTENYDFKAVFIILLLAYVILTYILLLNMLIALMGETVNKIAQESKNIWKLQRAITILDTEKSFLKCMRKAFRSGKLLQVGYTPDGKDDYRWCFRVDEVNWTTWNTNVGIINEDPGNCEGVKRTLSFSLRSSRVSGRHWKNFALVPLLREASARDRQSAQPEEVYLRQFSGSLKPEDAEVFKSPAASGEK
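Cells expressing TRPV1 were dye-loaded with Fluo-8 and read kinetically: 10 s baseline, 3 min after compound (agonist portion), then 2 min after EC20 capsaicin (allosteric enhancer portion). Calcium-bound dye fluorescence at 480/520 nm.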
gsp ag: gsp mutant agonism | gsp mutant cells, cAMP HTRF, 30 min; control for the full effect not named in the record | Potency, µM (top dose mostly 76.9 µM), for the others: at the highest dose activation (cAMP increase), most hits filed as activators | 0.13% of 340,000 active | AID 624287; active = well fitted activation curve with a large enough effect; inconclusive = small, poorly fitted or top-dose-only effect, or another doubt; inactive = no such curve, though single readings can be large or run the other way; cell line not stated here;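 also: phosphodiesterase inhibitor Ro 20-1724 added with compounds to block cAMP breakdown; potency is read from the fitted curve at half-maximal effect; nearly all actives have a fitted effect of over 60% in size; about a fifth of the inactives were tested at one dose only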
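Cells in DMEM/10% FBS with G418 were pretreated with compounds in DMSO plus […] (300 uM stock) for 30 min at 37C. cAMP was measured by HTRF (cAMP-d2 plus anti-cAMP antibody-K) after 30 min at room temperature.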
Active calls of the source: *; ? = inconclusive; nt = not tested or not shown; [ ] = another dose, or the depositor's remark.

Codes: A = CtBP-E1A blk; B = ClpP mod; C = Menin-MLL FL inh; D = gsp antagonist; E = Sfp inh; F = TRPV1 PAM; G = gsp ag
CCOc1ccccc1N(CC(=O)Nc1ccc(S(=O)(=O)N2CCCC2)cc1)S(C)(=O)=O
  A = 2; B = 2.2%; C = 0.7; D = ?; E = 26%; F = -6; G = ?

COc1ccc(N2CCN(C(=O)C3CCCN(S(=O)(=O)c4ccc(C)cc4)C3)CC2)cc1 (centres undefined)
  A = -15; B = nt; C = nt; D = -11%; E = 2%; F = 1; G = -5%[15.4 µM]

O=C(CCc1nnc(CCCCc2ccccc2)o1)NCCN1CCCCC1=O
  A = 9; B = nt; C = 0.2; D = 11%; E = 7%; F = 5; G = -8%

CCCCN=C1SC(C(=O)Nc2sc3c(c2C(=O)OC)CCC3)C(N)=C1C(=O)N1CCOCC1 (centres undefined)
  A = -9; B = nt; C = nt; D = 1%; E = nt; F = nt; G = -19%[15.4 µM]

CCOC(=O)C1=C(C)N(C)C(=S)NC1c1c(OCC)ccc2ccccc12 (centres undefined)
  A = -10; B = 1.0%; C = -4.2; D = 2%; E = 23%; F = -4; G = 15%[15.4 µM]

COc1ccccc1CNC(=O)Cn1nc(C(F)(F)F)cc1C
  A = -5; B = -3.5%; C = nt; D = -3%; E = nt; F = -26; G = 26%

Cc1sc2ncnc(SC(C)C#N)c2c1C (centres undefined)
  A = 8; B = -0.2%; C = 4.0; D = -1%; E = -7%; F = -5; G = 26%

Cc1ccccc1N1CC(C(=O)Nc2nnc(SCc3ccccn3)s2)CC1=O (centres undefined)
  A = -5; B = 2.3%; C = -3.7; D = -6%; E = 5%; F = 1; G = -13%

N#CCCN(C(=O)Nc1ccc(Cl)cc1)c1ccccc1
  A = -1; B = 1.3%; C = 0.7; D = -1%; E = 7%; F = 14; G = 0%

COc1ccc(NC(=O)c2cc3n(n2)C(C(F)(F)F)CC(c2ccco2)N3)cc1 (centres undefined)
  A = -19; B = -0.5%; C = 1.4; D = -1%; E = 18%; F = 2; G = 0%

CCOC(=O)c1ccc(NC(=O)c2nc[nH]c2C(=O)N[C@@H](CCCCNC(=O)OC(C)(C)C)C(=O)OC(C)(C)C)cc1
  A = 0; B = ?; C = 3.7; D = -7%; E = 23%; F = 5; G = nt

O=[N+]([O-])c1cccc(COc2ccccc2CN2CCCCC2)c1
  A = -6; B = 1.3%; C = nt; D = -4%; E = nt; F = nt; G = nt

CN(C)CCCN(C(=O)c1ccc2c(c1)CCCC2)c1nc2ccc(Cl)cc2s1
  A = ?; B = -20%; C = 1.5; D = 14%; E = 35µM*; F = -8; G = 24%

COc1cc(NC(=O)CCCn2c(=O)oc3ccccc32)cc(OC)c1
  A = -5; B = nt; C = nt; D = 7%; E = nt; F = nt; G = ?

COc1cccc(-c2cc(C(F)(F)F)n3nc(C(=O)Nc4c(C)n(C)n(-c5ccccc5)c4=O)cc3n2)c1
  A = -2; B = 0.0%; C = -4.3; D = -10%; E = 15%; F = -24; G = -6%[15.4 µM]

Cc1nn(Cc2ccccc2)c(C)c1CNC(=O)[C@H](C)N=C1NS(=O)(=O)c2ccccc21
  A = 7; B = -0.9%; C = nt; D = 11%; E = nt; F = 1; G = 15%

CCCCCCSc1nc2c(c(=O)[nH]c(=O)n2C)n1C
  A = -6; B = 0.7%; C = -1.5; D = 9%; E = 3%; F = -1; G = ?

COc1ccc(S(=O)(=O)Nc2ccccc2C(F)(F)F)cc1
  A = 2; B = 0.3%; C = 4.4; D = -13%; E = 3%; F = 6; G = 22%

COc1cc(Nc2ccc(S(=O)(=O)N3CCN(C)CC3)cc2[N+](=O)[O-])cc(OC)c1
  A = ?; B = nt; C = nt; D = -22%; E = nt; F = -11; G = -24%[15.4 µM]

C=CCc1ccccc1OCC(O)CN1CCN(c2ccc(OC)cc2)CC1 (centres undefined)
  A = -27; B = -1.6%; C = 3.2; D = 12%; E = -5%; F = -2; G = -12%

CC1C(=O)N(Cc2cn(CC3CCCCC3)nn2)CCS(=O)(=O)N1Cc1ccc(-c2cccc(N(C)C)c2)cc1 (centres undefined)
  A = -10; B = -11%; C = nt; D = nt; E = nt; F = nt; G = -37%[inhibitor]

O=C(NCc1ccc2c(c1)OCO2)C1CCC(CNS(=O)(=O)c2cccc3nsnc23)CC1 (centres undefined)
  A = 2; B = 1.0%; C = 0.2; D = -6%; E = -1%; F = 1; G = -7%

CCOc1ccc2ccccc2c1C(=O)N1CCOCC1
  A = 3; B = -0.3%; C = 1.2; D = 2%; E = 12%; F = 6; G = -65%[inhibitor]

Cc1cc(C)n2nc(C(=O)OCC(=O)N3CCC3)nc2n1
  A = -6; B = -2.4%; C = -2.6; D = -6%; E = 15%; F = -9; G = 5%[15.4 µM]

CN(C)c1ccc(NC(=S)NCC2CCCO2)cc1 (centres undefined)
  A = 0; B = 1.2%; C = 5.7; D = ?; E = 10%; F = 6; G = -23%[15.4 µM]

COc1ccc(CCNC(=O)CSc2nncs2)cc1
  A = 17; B = 1.2%; C = 6.3; D = 12%; E = 4%; F = -4; G = -5%

Cc1ccc(CN2CCNC(=O)C2CC(=O)NC2CCCCCC2)o1 (centres undefined)
  A = 3; B = nt; C = 8.5; D = 5%; E = 13%; F = 0; G = 37%

O=C(Nc1nc(-c2ccccc2)cs1)NC1CCCCC1
  A = -2; B = -0.7%; C = 4.2; D = 2%; E = 6%; F = -5; G = 0%

O=C(CCC1CCCN(C(=O)COc2ccccc2)C1)N1CCN(c2ccccn2)CC1 (centres undefined)
  A = -5; B = 3.8%; C = -4.2; D = -11%; E = -5%; F = 12; G = -31%[inhibitor]

Cc1ccn2c(c1)nc(=S)n2C(=O)c1ccco1
  A = nt; B = nt; C = 2.0; D = nt; E = ?; F = 8; G = nt

Filtered by structure: the compounds so far with a cyano group
Codes: A = CtBP-E1A blk; B = ClpP mod; C = Menin-MLL FL inh; D = gsp antagonist; E = Sfp inh; F = TRPV1 PAM; G = gsp ag
Cc1sc2ncnc(SC(C)C#N)c2c1C (centres undefined)
  A = 8; B = -0.2%; C = 4.0; D = -1%; E = -7%; F = -5; G = 26%

N#CCCN(C(=O)Nc1ccc(Cl)cc1)c1ccccc1
  A = -1; B = 1.3%; C = 0.7; D = -1%; E = 7%; F = 14; G = 0%

(continued)
Codes: A = CtBP-E1A blk; B = ClpP mod; C = Menin-MLL FL inh; D = gsp antagonist; E = Sfp inh; F = TRPV1 PAM; G = gsp ag
Cc1ccc(S(=O)(=O)NC2(C(=O)O)CCCC2)cc1
  A = 8; B = 35µM*; C = nt; D = 12%; E = nt; F = nt; G = -38%[inhibitor]

COc1cc2ccc(=O)oc2c(CC=C(C)C)c1OC
  A = 8; B = -16%; C = 7.5; D = 2%; E = 4%; F = -18; G = 33%

CC(C)OCCCNC(=O)CN1C(=O)c2cccc3cccc1c23
  A = -5; B = -5.4%; C = -1.8; D = 4%; E = 8%; F = 3; G = -12%[15.4 µM]

COc1ccc(C(=O)/C=C2\NCC3c4ccccc4CCN3C2=O)cc1 (centres undefined)
  A = -3; B = -5.1%; C = -1.9; D = -2%; E = ?; F = 12; G = 5%

CC(C)CC(=O)Nc1ccc(C(=O)NNC(=S)NC(=O)C2CCCCC2)cc1
  A = 9; B = 14%; C = 1.2; D = -4%; E = 10%; F = 1; G = -8%

CCCCNc1cc(C)nc(NCc2ccccc2)n1
  A = -9; B = 0.0%; C = -0.6; D = 9%; E = -15%; F = -13; G = -30%[inhibitor]

O=C1CCCc2c1cc(-c1ccccc1)n2-c1ccccc1
  A = ?; B = -5.6%; C = 2.7; D = -18%; E = 14%; F = -2; G = -51%[inhibitor]

C[C@@]12CCC3[C@@](CCC4[C@@]3(C)CCC[C@@]4(C)C(=O)N3CCOCC3)(CC1=O)C2 (some centres undefined)
  A = -3; B = -2.9%; C = nt; D = 7%; E = nt; F = nt; G = 12%

Cc1cccc(-n2cnc3c(c2=O)c2nc4ccccc4nc2n3Cc2ccco2)c1
  A = -1; B = ?; C = 5.7; D = -14%; E = 3.5µM*; F = -3; G = 8%

COc1ccc(CNC(=O)CN(C(=O)c2csnn2)c2ccc(C(C)=O)cc2)cc1
  A = 13; B = 0.1%; C = nt; D = 5%; E = 1%; F = 7; G = -7%[15.4 µM]

O=C(N/N=C/c1ccc(F)cc1)c1ccccc1
  A = 3; B = 0.3%; C = 4.6; D = 4%; E = 7%; F = -8; G = -18%

CC(=O)c1c(C)n([O-])c2cc(F)c(F)cc2[n+]1=O
  A = 10; B = -3.3%; C = -4.7; D = 0%; E = 24%; F = 4; G = -23%

C/C(CC(=O)NC1C2CC3CC(C2)CC1C3)=N\NC(=O)Cc1cccs1 (centres undefined)
  A = 3; B = -19%; C = 4.6; D = 12%; E = -7%; F = -5; G = 23%

O=C(NNC(=O)C1CC(c2cccnc2)=NO1)Nc1cccc(F)c1 (centres undefined)
  A = 20; B = 1.7%; C = 0.8; D = 7%; E = -1%; F = 8; G = -7%

CC(=O)NC(=Cc1ccccc1)C(=O)N1CCCC1C(=O)O (centres undefined)
  A = 2; B = -2.1%; C = nt; D = nt; E = nt; F = nt; G = 22%

COc1cc(/C=N/NC(=O)c2sc3ccccc3c2Cl)ccc1OC(=O)c1ccc([N+](=O)[O-])cc1
  A = 3; B = -1.8%; C = 2.1; D = -9%; E = 7%; F = 17; G = -6%

COC(=O)c1c(Cc2ccccc2Cl)c[nH]c1C
  A = -1; B = nt; C = -0.4; D = -10%; E = 6%; F = 20; G = ?

COc1cc(CC(=O)N2CCc3ccccc32)cc(OC)c1OC
  A = -1; B = -0.6%; C = 5.5; D = -12%; E = 6%; F = 0; G = 12%

COc1ccc2c3c([nH]c2c1)C1CC2C(CC(O)C(OC)C2CO)CN1CC3 (centres undefined)
  A = -8; B = -26%; C = ?; D = -4%; E = 7%; F = ?; G = nt

CC(C)=CC(=O)OCC(=O)NC(=O)NC(C)(C)C
  A = 1; B = 0.1%; C = 0.6; D = 4%; E = 21%; F = -32; G = -9%

CCN(C(=O)CSc1nnc(-c2ccc(F)cc2)c2ccccc12)C1CCS(=O)(=O)C1 (centres undefined)
  A = -7; B = 1.1%; C = -3.2; D = -8%; E = -9%; F = 4; G = 5%

CSc1ccccc1C(=O)OCC(=O)NC1CCS(=O)(=O)C1 (centres undefined)
  A = nt; B = nt; C = 0.4; D = 10%; E = 7%; F = -2; G = -2%[15.4 µM]

Compound activity (PubChem)
